MgrA-DNA mod: S. aureus MgrA activity modulators, primary screen, biochemical, S. aureus Newman, fluorescence polarization; MgrA-DNA binding; inhibition, %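 (about 10 µg/mL by stock and volumes)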; actives 0.13% (n = 84,000); AID 602314, 2012;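 active = above 50% in either of two replicates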;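 note: 0% = protein plus DNA without compound and 100% = DNA alone without protein; higher means less MgrA bound to DNA so lower polarization; one replicate is shown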
S aureus helic: inhibitors of S. aureus replicative helicase, primary screen, biochemical, fluorescence unwinding readout; replicative DNA helicase (DnaC/DnaB), Staphylococcus aureus; purified S. aureus helicase, fluorescence unwinding assay; about half of the hits fall short of the stated cut; inhibition, %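 (tested at about 80 µM)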; actives 0.05% (n = 120,000); AID 485395, 2010;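 active = both duplicates at 50% or more, or one of them with a favoured structure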;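 note: 0% = mean of negative control wells and 100% = mean of positive control wells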
Active calls of the source: *; . = not tested or not shown. An excerpt; the hit share may differ from the screen's.

Preview, 2 compounds:
Structure	MgrA-DNA mod	S aureus helic
CCCn1cc(S(=O)(=O)CC(=O)N2CCc3ccccc32)c2ccccc21	.	15.0
CC(C)OC(=O)Cn1cc(/C=C2/SC(=O)NC2=O)c2ccccc21	2.5	-15.0

Results, from the first entry:
Structure	MgrA-DNA mod	S aureus helic
CCCn1cc(S(=O)(=O)CC(=O)N2CCc3ccccc32)c2ccccc21	.	15.0
CC(C)OC(=O)Cn1cc(/C=C2/SC(=O)NC2=O)c2ccccc21	2.5	-15.0
CCOC(=O)c1cc2cc(OCc3ccccc3)ccc2[nH]1	0.5	.
CC(=O)N/C(N)=N/c1nc2ccccc2o1	0.5	9.0
COC(=O)CCCC[C@H]1SC[C@H]2NC(=O)N[C@]21O	.	-23.0
O=C(Cn1c(NCc2ccccc2)nc2ccccc21)N1CCCC1	.	30.0
Cc1ccccc1OC(C)C(=O)O/N=C(\N)c1cccnc1 (configuration not stated)	0.9	4.0
COC(=O)[C@H]1[C@H]2C[C@@H]3c4[nH]c5cc(OC)ccc5c4CCN3C[C@H]2C[C@@H](OC(=O)/C=C/c2cc(OC)c(OC)c(OC)c2)[C@@H]1OC	4.7	.
Cc1ccc2[nH]c(=O)c(CN(Cc3cccnc3)S(=O)(=O)c3ccccc3)cc2c1	-2.0	7.0
S=C(NCc1ccco1)N/N=C1\CSCc2ccccc21	.	-21.0
O=C(O)CCC(=O)N1N=C(c2c(-c3ccccc3)c3cc(Br)ccc3[nH]c2=O)CC1c1ccco1 (configuration not stated)	5.1	.
Cc1ncc(CO)c(/C=N/NC(=O)c2ccc(O)cc2)c1O	.	4.0
COc1ccc(NC(=O)C(c2ccc(C)cc2)N(Cc2ccco2)C(=O)c2cnccn2)cc1 (configuration not stated)	.	-30.0
Cc1ccc(C=C2C(=O)OC(C)(C)OC2=O)o1	2.9	.
O=C(CP(=O)(CO)CO)c1ccc(Cl)cc1	.	-2.0
O=C(NCCN1CCCC1)C1=Cc2sc3c(c2CS1)CCCC3	-1.1	-19.0
Cc1nc(Cc2c(Cl)cccc2Cl)[nH]c(=O)c1Cl	.	-2.0
COc1ccc(C2c3ccsc3CCN2C(=O)NC(C)(C)C)cc1 (configuration not stated)	0.1	.
CCn1cc(NC(=O)NCc2ccco2)c(=O)c2ccc(C)nc21	.	-32.0
CCOC(=O)Cc1nnc2c(Nc3cc(C)ccc3C)nc3nonc3n12	2.0	0.0
Cc1ccc(C=Nc2ccccc2OCc2ccccc2)cc1C	-1.8	10.0
O=C(Nc1ccc(S(=O)(=O)NCC2CCCO2)cc1)C1CC(=O)N(c2ccc(Cl)cc2)C1 (configuration not stated)	-2.9	-6.0
Cc1ccc(N(C)C(=O)CCS(=O)(=O)c2ccc3c(c2)n(C)c(=O)c(=O)n3C)cc1	-1.3	6.0
COc1ccccc1CN(C)C(=S)NC1CC1	.	-6.0
c1cc(CNC2CCCCC2)n(-c2nnc(N3CCCC3)s2)c1	.	27.0

Some of the entries so far, with the structure last:
| MgrA-DNA mod | S aureus helic | molecule |
| --- | --- | --- |
| -1.1 | -19.0 | O=C(NCCN1CCCC1)C1=Cc2sc3c(c2CS1)CCCC3 |
| 2.5 | -15.0 | CC(C)OC(=O)Cn1cc(/C=C2/SC(=O)NC2=O)c2ccccc21 |

(continued)
Structure	MgrA-DNA mod	S aureus helic
CCn1cc(N)c(C(N)=O)n1	3.3	13.0
Cc1cc(C)c(S(=O)(=O)N2CCNC(=O)CC2)c(C)c1	.	6.0
O=C(O)CCCC(=O)Nc1cccc(C(=O)O)c1	.	-2.0
COC(=O)C1=C(C)OC(N)=C(C#N)C1c1ccc(Cl)cc1 (configuration not stated)	.	14.0
COc1ccccc1C1C2=C(CC(C)(C)CC2=O)Nc2n[nH]c(C)c21 (configuration not stated)	0.1	.
Cc1oc(C(=O)O)cc1CSCc1cc(C(=O)O)oc1C	-0.4	7.0
O=C(COC(=O)Cc1c[nH]c2ccccc12)Nc1ccccc1	-2.1	-39.0
O=c1cc(CN2CCN(S(=O)(=O)/C=C/c3ccccc3)CC2)nc2sccn12	.	3.0
Cc1cc(C)nc(SCc2nc3sccn3c2Br)n1	.	-20.0
O=C1Nc2ccccc2/C1=C/c1ccccc1	1.3	8.0
COc1ccc(NC(=O)c2c(NC(=O)CSc3nnc(C4CC4)n3C)sc3c2CCCC3)cc1	.	-3.0
CNC(=O)c1cc2c(=O)n3ccccc3nc2nc1NC1CCCC1	-2.3	17.0
Cc1cc(/C(=N/O)C(C)(C)NO)ccc1Cl	3.1	10.0
CC(=O)n1c2c(c3ccccc31)OC(N)=C(C#N)C2c1ccc(C(C)C)cc1 (configuration not stated)	-4.7	15.0
CC1(C)CC(=O)C(C2C3=C(CC(C)(C)CC3=O)Oc3ccccc32)C(=O)C1 (configuration not stated)	1.1	-26.0
CCC(C)(C)C(=O)NC(c1ccccc1)c1ccccc1	-2.2	6.0
CN(C)Cc1c(O)ccc2cc(-c3nc4ccccc4[nH]3)c(=O)oc12	.	-179.0
CCOC(=O)N1CCN(CC(=O)N2c3ccccc3Sc3ccccc32)CC1	3.5	11.0
COc1ccc(NC(=O)N2CCN(C/C=C/c3ccccc3)CC2)cc1	1.4	8.0
CC(C)NC(=O)CSc1nc(-c2ccc(F)cc2)cc(C(F)(F)F)n1	-0.1	8.0
CCOc1ccc(N2C(=O)/C(=C/c3ccc(Cl)cc3)SC2=S)cc1	.	-20.0
O=C(CSc1nc(-c2ccc(F)cc2)[nH]c1-c1ccccc1)NC1CCCC1	-0.9	12.0
C(=C\c1ccccc1)/CSc1ncnc2c1oc1ccccc12	-1.7	-2.0
O=C1NC23CCCCC2C(c2ccccc2O3)C1C(=O)N1CCOCC1 (configuration not stated)	.	-14.0
O=C(Oc1cccc(Nc2ncnc3ccccc23)c1)c1cccs1	0.3	-12.0
CCN1CCN(CCCNC(=O)c2cc3sccc3n2Cc2ccc(F)cc2)CC1	-1.2	4.0
CCCn1c(=O)c2ccccc2n2c(SC(C)C(=O)Nc3ccc(Cl)cn3)nnc12 (configuration not stated)	.	17.0
C1COCCNCCOCCN1	.	-16.0
Cc1ccccc1Nc1nc(N)nc(CSc2ncnc3sc4c(c23)CCC4)n1	.	-15.0
CCOc1ccc(OCC(=O)Oc2ccc3c(c2)OCO3)cc1	.	-1.0
CS(=O)(=O)NCC(O)Cn1c2ccccc2c2ccccc21 (configuration not stated)	.	-24.0
Cc1ccc(-n2nc3c(n2)/C(=N/O)CCC3)cc1	.	-13.0
COC(=O)c1ccc(S(=O)(=O)N2CCCN(Cc3ccccc3)CC2)n1C	-0.9	.
O=C(c1cnn2c1NC(c1ccc(Br)cc1)CC2C(F)(F)F)N1CCCC1 (configuration not stated)	-0.1	12.0
O=C(Cc1ccccc1)Nc1cccc(S(=O)(=O)c2cccc(NC(=O)Cc3ccccc3)c2)c1	2.0	-1.0
COc1ccc(C(=O)Nc2ccc3c(c2)C(=O)N(C)C3=O)cc1OC	2.0	5.0
O=C(c1cccnc1)N(C1CCCCC1)C1CCCCC1	0.9	-1.0
Cc1ccc(NC(=O)c2c(O)c3ccccc3[nH]c2=O)c(C)c1	.	13.0
O=C(Nc1ccc(Cl)cc1-c1nc2ccccc2s1)c1ccco1	0.9	22.0
CN1C(=O)CC(C(=O)Nc2cccc(Cl)c2)SC1=Nc1cccc(C(F)(F)F)c1 (configuration not stated)	0.1	.
CC(=O)N1c2ccccc2C2(O)N=C(c3ccccc3)SC12 (configuration not stated)	.	-21.0
CCOC(=O)N1CCc2c(sc3c2C(=O)NC(c2ccc(OCC)cc2)N3)C1 (configuration not stated)	.	-26.0
O=C(CSc1ncnc2ccccc12)NCc1ccco1	.	3.0
Cc1ccccc1CNC(=O)c1oc2ccc3c(c2c1C)C(O)CC(C)(C)O3 (configuration not stated)	.	15.0
COc1cccn(CC(=O)NN)c1=O	-0.9	.
CCCC(=O)Nc1ccc2c(c1)COC2=O	0.9	-9.0
O=C(NC(=S)Nc1ccc(-c2nc3ccccc3o2)cc1)c1cc2ccccc2o1	0.0	3.0
CC1CN(C(=O)Cc2csc3nc(-c4ccc(Cl)cc4)cn23)CC(C)O1 (configuration not stated)	.	7.0
COc1ccc2c(=O)c(-c3ccccc3)coc2c1	.	6.0
CCc1ccc(OCCNC(=O)c2ccco2)cc1	-2.4	8.0

The listing continues.
Structure	MgrA-DNA mod	S aureus helic
NC(=O)C1(c2ccccc2)CCC(=O)N1c1ccccc1 (configuration not stated)	.	11.0
CC(=O)N1c2ccc(S(=O)(=O)N3CCCC3)cc2CC1C(=O)N1CCN(Cc2ccccc2)CC1 (configuration not stated)	.	7.0
Cc1nn(-c2ccccc2)c2sc(C(=O)NCCCn3ccnc3)cc12	1.2	-2.0
O=S1(=O)CC(O)C(S(=O)(=O)c2ccccc2)C1 (configuration not stated)	1.8	4.0
O=C(NCc1ccco1)c1cn(-c2ccccc2)nc1-c1cccnc1	-0.2	2.0
O=C(Cn1c(=O)oc2cc(S(=O)(=O)NC3CCCCC3)ccc21)N1CCCCCC1	-1.6	11.0
Cc1ccc(CC(=O)N2CCOCC2)cc1	4.5	15.0
COc1ccc(C(=O)C(C)OC(=O)Cn2c(CS(C)(=O)=O)nc3ccccc32)cc1 (configuration not stated)	.	-8.0
O=C(CSc1nnnn1-c1ccccc1)NC(C(=O)O)(c1ccccc1)c1ccccc1	-6.2	-6.0
CCOC(=O)C1=C(NC(=O)CSc2nnnn2-c2ccccc2)SC2CN(C)CCC12 (configuration not stated)	.	-6.0
CCN(C(=O)CSc1cccc[n+]1[O-])c1ccccc1	-0.7	-16.0
O=c1/c(=C/c2ccc(N3CCOCC3)cc2)sc2nc3ccccc3n12	-1.6	-3.0
Clc1ccc(-c2nc(CN3CCOCC3)cs2)cc1	-1.1	.
Cc1ccc(P(/C=C2\N(C)c3ccccc3C2(C)C)(=Nc2ccc(S(N)(=O)=O)cc2)N2CCOCC2)o1 (configuration not stated)	.	-10.0
COCc1c(C(=O)OCC(=O)N2c3ccccc3CC2C)oc2ccccc12 (configuration not stated)	.	-7.0
Cn1c(=O)c2c(nc(SCc3ccc(C(=O)O)cc3)n2C)n(C)c1=O	.	3.0
CC1CC(C)CN(C(=O)c2ccc3c(c2)N(C)C(=O)/C(=C/c2cccc(Cl)c2)S3)C1 (configuration not stated)	-1.9	-10.0
CCOC(=O)c1c(C)nn(-c2ncccc2[N+](=O)[O-])c1C	-0.2	.
O=C(O)Cn1c2ccccc2c2nc3ccccc3nc21	.	18.0
O=C(NCCCN1CCc2ccccc2C1)Nc1ccc(Cl)cc1	.	25.0
O=C1C2CCC(C(O)C2)N1Cc1ccccc1 (configuration not stated)	0.0	-5.0
O=C(Nc1nc2ccc(Cl)cc2s1)C1CN(C(c2ccccc2)c2ccccc2)C1	-0.1	.
Cc1ccc(-c2cc(NC(=O)CNC(C)c3ccc(F)cc3F)on2)cc1 (configuration not stated)	.	-14.0
COc1cccc(CC(=O)n2nc(N)c3cc4ccc(OC)cc4nc32)c1	.	3.0
CC(NC(=O)c1ccncc1)C(c1cccs1)N1CCN(c2ccccc2)CC1 (configuration not stated)	.	-20.0

Taken from above.
Result for O=C(CP(=O)(CO)CO)c1ccc(Cl)cc1 in S aureus helic: -2.0
Result for Cc1ccc(CC(=O)N2CCOCC2)cc1 in S aureus helic: 15.0
Result for CN(C)Cc1c(O)ccc2cc(-c3nc4ccccc4[nH]3)c(=O)oc12 in S aureus helic: -179.0

Full records, quoted from the list. Values in the order: MgrA-DNA mod	S aureus helic
Shown for O=C(Nc1nc2ccc(Cl)cc2s1)C1CN(C(c2ccccc2)c2ccccc2)C1 = -0.1	.
Shown for O=S1(=O)CC(O)C(S(=O)(=O)c2ccccc2)C1 (configuration not stated) = 1.8	4.0
Shown for Clc1ccc(-c2nc(CN3CCOCC3)cs2)cc1 = -1.1	.
Shown for CC1CC(C)CN(C(=O)c2ccc3c(c2)N(C)C(=O)/C(=C/c2cccc(Cl)c2)S3)C1 (configuration not stated) = -1.9	-10.0
Shown for Cc1ccc(CC(=O)N2CCOCC2)cc1 = 4.5	15.0

Further records:
Structure	MgrA-DNA mod	S aureus helic
O=C1c2ccccc2C(=O)N1CC1c2ccccc2CCN1S(=O)(=O)c1ccc2[nH]c(=O)c(=O)[nH]c2c1 (configuration not stated)	.	22.0
COC(=O)c1sc2ccccc2c1O	1.4	.
CC1CN(C(=S)Nc2cccc(C(F)(F)F)c2)CC(C)O1 (configuration not stated)	0.2	.
Cc1ccc(CN2C(=O)CSC2=O)cc1	-1.5	17.0
COc1ccc2c(c1)CN(Cc1ccccc1)CO2	.	6.0
NS(=O)(=O)c1ccc(-c2ccc(/C=N/NC(=O)Cc3cccs3)o2)cc1	.	-10.0
COc1ccccc1C1CCN(Cc2sc3ccccc3c2C)CC1	-0.8	.
NC(=O)COc1ccc(-c2nc3ccccc3s2)cc1	-0.7	18.0
CC1(C)CCCC(C)(C)N1CC(O)COc1ccccc1Br (configuration not stated)	.	9.0
O=C1CSC(=O)N1CCN=Cc1c(O)n(-c2ccc(Cl)cn2)c(=O)c2ccccc12	.	-27.0
O=[N+]([O-])c1cccc2[nH]ccc12	2.9	.
O=C(Cn1c(-c2cccs2)cc2ccccc21)NC1CCCC1	.	-15.0
